Vaccinia mCherry: inhibitors of vaccinia virus infection (mCherry reporter signal); Vaccinia virus mCherry reporter infection, fluorescence; about a quarter of the inactives have no number; Potency, µM (titrated, usually from 36.5 µM), inactives show at the highest dose activity change, negative = inhibition, most hits filed as inhibitors; 310,000 tested, 0.63% active; AID 720579; active = well fitted inhibition curve with a large enough effect; inconclusive = small, poorly fitted or top-dose-only effect; inactive = no such curve, though single readings can be large or run the other way; tested in A549 cells; also: nearly all actives have a fitted effect of over 35% in size; inactives centre near -10
VACV Venus inh: vaccinia inhibition (Venus reporter). Vaccinia virus Venus reporter expression, fluorescence. Potency, µM (series often up to 36.5 µM), inactives show top-dose activity change, negative = inhibition, most hits filed as inhibitors. 330,000 tested, 0.46% active; active means well fitted inhibition curve with a large enough effect; inconclusive means small, poorly fitted or top-dose-only effect; inactive means no such curve, though single readings can be large or run the other way; tested in A549 cells; also: nearly all actives have a fitted effect of over 30% in size; inactives centre near -10
* marks the source's active call; other numbers are inactive results; i = inactive; ? = inconclusive; . = not tested or not shown; & = joins results of further samples; [ ] = remark or other dose. % is scaled to controls: 0 for no effect and ±100 for the full control effect; potency is read from the fitted curve at half-maximal effect.

SMILES	Vaccinia mCherry	VACV Venus inh
COc1cccc(N2C(=O)CSC23C(=O)N(CC(=O)Nc2cccc(Cl)c2)c2ccccc23)c1 (centres undefined)	-11%	-12%
O=C(Nc1cc(Cl)cc(Cl)c1)c1ccc2c(c1)N(Cc1cccc(Cl)c1)C(=O)c1ccccc1S2=O (centres undefined)	-25%	-11%
Cc1noc(/C=C/N(C)C)c1S(=O)(=O)N1CCCC(C(=O)N2CCc3ccccc32)C1 (centres undefined)	17%	-1%
O=C(CSc1nnc(-c2ccccc2Cl)o1)N1CCCc2ccccc21	-9%	1%
Cc1c(NC(=S)NC(=O)c2ccccc2Cl)c(=O)n(-c2ccccc2)n1C	-14%	3%
O=C(NC(=S)Nc1ccc(S(=O)(=O)Nc2nccs2)cc1)c1ccc(F)cc1	-19%	-4%
CCOc1ccccc1NC(=O)c1cc(SC)ccc1Cl	-12%	-28%
C=CCC[C@H](Cc1ccc(F)cc1)C(=O)OC[C@@H](Cc1c[nH]c2ccccc12)NC(=O)[C@@H](CC=C)CC(=O)NCCO	-6%	?
CCc1cccc(C)c1NC(=O)C1CCCN(S(=O)(=O)c2cccc3nsnc23)C1 (centres undefined)	-2%	-12%
COCCn1c(SCC(=O)N2CCOCC2)nc2c(c1=O)SCC2	-14%	2%
C/C(N)=C(/C#N)C(=O)COC(=O)c1cc(-c2ccc(Br)cc2)nc2ccccc12	?	?
S=C1SCCCN1Cc1ccc(Cl)cc1	i	-15%
O=C(NCCN1CCN(c2ccccc2F)CC1)C1CC(=O)N(C2CCCC2)C1 (centres undefined)	i	-1%
O=c1[nH]c2ccccc2c(O)c1-[n+]1ccccc1	-3%	1%
CC1(c2ccccc2)CC(C)(C)N(C(=O)C2CCCO2)c2ccccc21 (centres undefined)	-1%	-20%
Cc1ccc(CN2C[C@@H](Sc3nc(C)cc(C)n3)C[C@H]2C(=O)N2CCN(c3ccccc3F)CC2)cc1	-13%	14%
Cc1ccc2c(c1)C1CN(C)CCC1N2S(=O)(=O)c1ccccc1 (centres undefined)	-25%	-18%
COCCN(Cc1cc2ccc(C)c(C)c2nc1Cl)C(=O)N1CCOCC1	i	-5%
CCC(C)(C)n1nnnc1C(c1ccc(OC)c(OC)c1)N1CCN(c2ccccc2)CC1 (centres undefined)	.	-13%
Cc1cccc(NC(=O)CCn2cnnn2)c1C	1%	-9%

Gathered by group, the entries above containing an NH in an aromatic ring (2)
SMILES	Vaccinia mCherry	VACV Venus inh
C=CCC[C@H](Cc1ccc(F)cc1)C(=O)OC[C@@H](Cc1c[nH]c2ccccc12)NC(=O)[C@@H](CC=C)CC(=O)NCCO	-6%	?
O=c1[nH]c2ccccc2c(O)c1-[n+]1ccccc1	-3%	1%

Full records, quoted from the list. Order of screens: Vaccinia mCherry | VACV Venus inh
Entry for `O=C(Nc1cc(Cl)cc(Cl)c1)c1ccc2c(c1)N(Cc1cccc(Cl)c1)C(=O)c1ccccc1S2=O` (centres undefined) → -25% | -11%
Entry for `COCCN(Cc1cc2ccc(C)c(C)c2nc1Cl)C(=O)N1CCOCC1` → i | -5%
Entry for `COc1cccc(N2C(=O)CSC23C(=O)N(CC(=O)Nc2cccc(Cl)c2)c2ccccc23)c1` (centres undefined) → -11% | -12%
Entry for `CCC(C)(C)n1nnnc1C(c1ccc(OC)c(OC)c1)N1CCN(c2ccccc2)CC1` (centres undefined) → . | -13%
Entry for `C=CCC[C@H](Cc1ccc(F)cc1)C(=O)OC[C@@H](Cc1c[nH]c2ccccc12)NC(=O)[C@@H](CC=C)CC(=O)NCCO` → -6% | ?

Next part.
SMILES	Vaccinia mCherry	VACV Venus inh
O=C(Nc1nccs1)c1cc(S(=O)(=O)N2CCOCC2)ccc1Cl	-11%	-10%
CC1CCN(c2ccc(S(=O)(=O)Nc3cc(C(=O)O)cc(C(=O)O)c3)cc2[N+](=O)[O-])CC1	i	2%
Cc1cccc(C)c1Nc1nnc(SCc2nc3ccccc3c(=O)[nH]2)s1	?	?
COC(=O)[C@@H]1C[C@@]2(O)[C@H](O)[C@H](O)[C@H](O)C[C@H]2N1CC1CC1	-8%	-5%
Nc1nc(SCC(=O)Nc2ccc(Oc3ccccc3)cc2)n[nH]1	-13%	-6%
Cc1ccc(NC(=O)CCNS(=O)(=O)c2ccc3c(c2)CCCC(=O)N3)cc1	-14%	-9%
Cc1ncoc1C(=O)N1CCCC(C(=O)c2cccc(OC(C)C)c2)C1 (centres undefined)	-24%	0%
Cc1c(Nc2ncccc2C(=O)O)cccc1C(F)(F)F	-17%	-10%&-9%
C=CCN(c1ccccc1)S(=O)(=O)c1cccc(C(=O)NC2CCN(Cc3ccccc3)CC2)c1	?	?
CSc1ccccc1NC(=S)Nc1ccc(S(N)(=O)=O)cc1	-19%	-6%
CCSc1ncc(Cl)c(C(=O)N(Cc2ccccc2)c2ccc(OC)cc2)n1	-12%	-16%
O=C(Nc1nccs1)OCc1ccccc1	-9%[7.34 µM]	-6%[7.34 µM]
Cc1ccc(O)c(C=Nc2ccc3[nH]ncc3c2)c1	i	-8%
Cc1cccc(NC(=O)Cn2cc(C(=O)C3CC3)c3ccccc32)c1	3%	-4%
Cc1ccc2c(CN3CCN(c4ccccc4F)CC3)cc(=O)oc2c1	3%	-1%
O=C1NC2=C(CCc3ccccc32)C(c2ccc(Br)cc2)N1 (centres undefined)	-28%	-19%
C=CCOc1ccc(C2NC(=S)NC(C)=C2C(=O)c2ccccc2)cc1OC (centres undefined)	-8%	-3%
CC1=C(c2ccc(C)cc2)S(=O)(=O)N(Cc2ccc(C(=O)NCc3cccc(C)c3)cc2)C1=O	-5%	-13%
Cc1cc(Oc2ccc(N)cn2)ccc1Cl	-9%	-23%
Cc1onc(-c2ccccc2)c1C(=O)Nc1nnc(C(C)(C)C)s1	i	-12%
Cc1ccc(SCC(=O)Nc2ccc3oc(-c4ccccc4C)nc3c2)cc1	-21%	-15%
Cc1cccc(OCC(=O)Nc2ccc(N3CCN(C(=O)c4ccccc4)CC3)cc2)c1C	?	-22%
Cc1ccc(S(=O)(=O)c2cn(C)c3cc(N4CCCC4)c(F)cc3c2=O)c(C)c1	-23%	-22%
Cc1ccc(OCC(O)CNC(=O)c2ccccc2C(=O)O)cc1 (centres undefined)	-11%	-4%
O=[N+]([O-])c1ccc(NN=C2CCCCC2)c([N+](=O)[O-])c1	-16%	-8%
O=C(OCc1ccccc1)N1CCC2CC1c1cc(N3CCOCC3)ccc12 (centres undefined)	?	-8%
Cc1c(NC(=O)OCCNC(=O)COc2ccc(Cl)cc2Cl)sc(=S)n1C	-11%	-24%
COC(=O)c1ccc(CN2CCN(C3CCCC3)C(CCO)C2)cc1 (centres undefined)	-14%	-9%
O=C(NCc1ccco1)c1cc(-c2ccccc2)nc2ccccc12	.	-13%
Cc1ccc(Nc2ncnc3sccc23)c(C)c1	-2%	-5%
O=C(N/N=C/c1cc(Br)cc(Br)c1O)c1ccncc1	7.9µM*	?
COCCNC(=O)CN(CCc1ccccc1)S(=O)(=O)c1ccc(Br)cc1	i	-15%
CCN(CC)c1ccc(Nc2cc3n(c(=O)n2)CCc2cc(OC)c(OC)cc2-3)cc1	?	?
Cc1ccccc1NC(=O)c1cnn(-c2ccccc2)c1NC(=O)c1ccco1	i	-9%
Cc1ccccc1CC(=O)NCCN1CCCCC1	-12%	-10%
O=C(Cn1ncc(N2CCOCC2)c(Cl)c1=O)c1ccc(Cl)cc1	-22%	3%
Cc1ccc(C(=O)Nc2nc(-c3ccccc3)ns2)cc1	-6%	-5%
COc1ccc2sc(-c3ccc(S(C)(=O)=O)cc3)c(C(=O)NCCc3c[nH]c4ccccc34)c2c1	-36%	-17%
CCCCC1(CCCC)NC(=S)N(Nc2ccc(C)cc2)C1=O	i	-2%
FC(F)(F)c1ccc(Cl)c(NC(=S)NC2CC2)c1	-5%	-14%
CC(=O)N1CCc2cc([N+](=O)[O-])ccc21	i	-9%
COCCNC(=O)/C(C#N)=C/c1cc(C)n(C2CCCCC2)c1C	-13%	-13%
Cc1cc(C(=O)NC(=S)Nc2ccccc2N2CCOCC2)ccc1[N+](=O)[O-]	-13%	-10%
CC(C)(C)c1ccc(C(=O)Nc2ccc(C(=O)NCc3cccnc3)cc2)cc1	?	-25%
O=C(NC1CCCCC1)N1CCc2ccccc2C1	i	-5%
COc1ccc(CNC(=O)C/C(C)=N/NC(=O)Cc2ccc(OC)c(OC)c2)cc1	i	-10%
Cc1ccc(Cc2c(-c3ccc(C#N)cc3)nc3c(C)cc(Br)cn23)cc1	25%	2%
CC(=O)c1ccc(NC(=O)c2nc(-c3ccc(C)cc3)n3c2CCCCC3)cc1	?	?
O=C(NCc1cccnc1)c1cccn2c(=O)c3sccc3nc12	-5%	-7%
CCCc1cc(CNC(=O)C2CCC(=O)N(Cc3ccccc3F)C2)on1 (centres undefined)	-12%	-10%
Cc1ccc(C(=O)OCC(=O)N(Cc2ccccc2)C(C)C)cc1C	i	-10%
O=C(CCCc1ccccc1)NC1CC(=O)N(c2ccc(Cl)cc2)C1 (centres undefined)	-13%	-11%
COC(=O)[C@@]12C[C@@H](CC(=O)NCc3ccc(C)o3)C(=O)N(Cc3ccc4c(c3)OCO4)C1=CCC(C)(C)C2	?	-28%
Cc1ccc2c(c1)c1c(n2CC(O)CNC2CCCCC2)CCCC1 (centres undefined)	?	?
CCc1c(C(=O)NCCc2cccc(C)c2)[nH]c(C)c1C(C)=O	-15%	10%
Cc1ccc2nc3c(cc(C#N)c(=O)n3-c3nnc(SCc4ccccc4)s3)c(=O)n2c1	-12%	-5%
CCOc1ccc(CN(C)C(C)C(=O)NCCc2ccc(F)cc2)cc1 (centres undefined)	?	6%
COC(=O)[C@H](CC(C)C)NC(=O)N1CCCCC1	i	-2%
Cc1ccc(C)c(Cn2c(=O)n(Cc3ccccc3)c(=O)c3c2c2cc(C)ccc2n3C)c1	-9%	-1%
COc1cc2c(=O)n(Cc3ccccc3)c(=O)n(CC(=O)NCCc3ccccc3)c2cc1OC	-9%	-8%

(more compounds)
SMILES	Vaccinia mCherry	VACV Venus inh
O=C(COc1ccccc1[N+](=O)[O-])N/N=C/c1ccc(OC(=O)c2ccco2)cc1	-17%	-3%
Cc1ccc(S(=O)(=O)Nc2ccc(OCC(=O)N3CCOCC3)cc2)c(C)c1NS(C)(=O)=O	-10%	15%
O=C(Nc1ccc(N2CCOCC2)cc1)C1CC(=O)N(c2ccccc2)C1 (centres undefined)	i	-9%
CC(=O)C[C@H]1c2cc(F)ccc2S(=O)(=O)N1c1ccc(N(C)C)cc1	-14%	-4%&-15%
CCOc1ccc(Cl)cc1-c1cc(C(=O)Nc2ccc(OC)cc2OC)[nH]n1	-23%	-3%
CC1(C)C[C@@H]2C(=O)CCC3O[C@@]3(C)CCC21 (some centres undefined)	i	0%
Cc1ccc(S(=O)(=O)N2CCCC2CNC(=O)c2ccc(F)c(F)c2)cc1 (centres undefined)	-4%	?
CCN(c1ccccc1C)S(=O)(=O)c1cc2c3c(c1)CCN3C(=O)CC2	-1%	-13%
O=C(N/N=C/c1ccc(F)cc1)c1ccc(-n2cnnn2)cc1	?	-6%
O=C(C1=C[C@H](C2CCCCC2)C[C@H](OCCCCO)O1)N1CCN(Cc2ccc3c(c2)OCO3)CC1	-7%	?
O=C(NCC(c1cccnc1)N1CCN(Cc2ccccc2)CC1)C(=O)Nc1cccc(Cl)c1 (centres undefined)	-24%	-22%
CCOC(=O)N1CCN(C(=O)c2ccc3c(c2)ncn3C2CCCC2)CC1	i	-12%
COc1cc(/C=N/NC(=O)C2CCN(CC(O)COCc3ccccc3)CC2)ccc1O (centres undefined)	-21%	-1%
CCOC(=O)CSc1nnc([C@@H](NC(=O)OC(C)(C)C)C(C)C)o1	.	-1%
Cc1ccccc1C=O	-2%	-8%
COc1cccc(N(C(=O)CS(=O)CC(=O)Nc2ccc(F)cc2)C(C(=O)NC2CCCCC2)c2cccs2)c1 (centres undefined)	-1%	-14%
COc1cc2c(cc1OC)CN(Cc1ccccc1)CC2	?	-4%
CC(c1ccccc1)N1C(=O)c2cccnc2C1=O (centres undefined)	i	-6%
Cc1cccc(N2CCN(C(c3ccc(F)cc3)c3nnc(-c4ccccc4)o3)CC2)c1C (centres undefined)	-5%	-13%
CCc1noc(C)c1C(=O)Nc1cccc(S(=O)(=O)N(C)c2ccccc2)c1	i	-10%
CC(C)Oc1ccc(Cn2c(=O)sc3ccccc32)cc1	.	7%
COc1ccc(C2NC(=O)c3ccccc3O2)cc1OC (centres undefined)	i	1%
CN(c1ccccc1)S(=O)(=O)c1ccc2c(c1)oc(=O)n2C	-16%	-11%
C=CCOc1ccc(/C=C2/C(=O)ON=C2C)cc1OC	-3%	-13%
COc1ccc(NC(=O)c2cc(-c3cc(Cl)ccc3C)n[nH]2)cn1	i	-5%
O=C(CNC1=NCCC1)c1ccc(Cl)cc1	-4%	-9%
O=C(CSc1ccc(-c2ccccn2)nn1)c1ccc(F)cc1	i	-9%
CCOC(=O)CN1CC23C=CC(O2)C(C(=O)NCc2ccc(F)cc2)C3C1=O (centres undefined)	-9%	1%
CCCCC(=O)Nc1cc(N(C)C)nc2ccccc12	.	-11%
O=C1NC2C(=CC(O)C(O)C2O)c2cc3c(cc21)OCO3 (centres undefined)	?	1µM*
Cc1cccc(OCc2nnc(SCC(=O)Nc3cccc(C(=O)N4CCOCC4)c3)o2)c1C	-18%	1%

An excerpt from above in order of number of heavy atoms, low to high.
SMILES	Vaccinia mCherry	VACV Venus inh
O=C(CNC1=NCCC1)c1ccc(Cl)cc1	-4%	-9%
CC(C)Oc1ccc(Cn2c(=O)sc3ccccc32)cc1	.	7%
O=C(CSc1ccc(-c2ccccn2)nn1)c1ccc(F)cc1	i	-9%
